# PK Bst – Pyruvate Kinase; partly purified Bacillus stearothermophilus pyruvate kinase, luminescence ATP production; ribose 5-phosphate activator present at AC10; Potency, µM; 1.2% of 51,000 active; AID 361, 2006; in the data active means potency below about 11 µM; inconclusive means mostly about 12 µM to 25 µM; inactive means weaker than that;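 the screen sought inhibitors and activators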;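 further: potency means the concentration at half of the fitted maximal effect; scaled between full activation by ribose 5 phosphate and full inhibition by luteolin; about four in five hits inhibit and the cells do not say which; series up to 57 µM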
# TsaE inh – qHTS Assay for Inhibitors of YjeE; tRNA threonylcarbamoyladenosine biosynthesis protein TsaE (Escherichia coli (strain …; purified YjeE, fluorescence polarisation of a bound ADP probe; Potency, µM; 0.05% of 71,000 active; AID 605, 2007; active = well fitted falling curve; inconclusive = weaker or top-dose-only fall, or a rising curve; inactive = flat or poorly fitted curve;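 further: top concentration of the series not given in the record; excess ADP was the control for the full effect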
#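 Fluorescence polarization of a BODIPY Texas Red–ADP probe (2 uM) bound to purified YjeE (10 uM) was read after 15 min room-temperature incubation with compounds. Loss of polarization marks inhibitors; ADP serves as titrated control.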
# Starred values were filed as active, the others as inactive; i = inactive; ? = inconclusive; nt = not tested or not shown.
SMILES,PK Bst,TsaE inh
CC(=O)c1cccc(N(CC(=O)N2CCCC2)S(C)(=O)=O)c1,>57,i
CCS(=O)(=O)N1CCN(C(=O)c2cccc(OC)c2)CC1,nt,i
O=C(O)CN1CCN(Cc2ccccc2Cl)C1=O,>57,i
CCOC(=O)N1CCN(C(=O)CN(C2CCCCC2)S(=O)(=O)c2ccc(F)cc2)CC1,nt,i
O=C(CN1C(=O)CSC1=O)Nc1ccc(C(=O)O)cc1,>57,i
COc1cccc(C(=O)N(Cc2ccc(N(C)C)cc2)C2CCS(=O)(=O)C2)c1 (centres undefined),>57,i
COCCn1c(=O)[nH]c2cc(C(=O)NCCN3CCN(c4ccccc4F)CC3)ccc2c1=O,>57,i
COCCn1nnnc1CN(CCc1ccccc1)Cc1cc2ccc(C)cc2[nH]c1=O,>57,i
CCn1nnnc1-c1ccc(OC)c(S(=O)(=O)NCCc2ccccc2)c1,nt,i
Cc1cc(C)nc(SCc2nnc(SCC(=O)Nc3nccs3)n2Cc2ccco2)n1,>57,i
CC(C)=CCNc1ncnc2c1c(C#N)cn2[C@H]1O[C@@H](CO)[C@@H](O)[C@@H]1O,nt,i
CN(C)c1cccc(NC(=O)CCc2ccccc2)c1,>57,i
CC(C)(C)P(=O)(CO)c1ccccc1 (centres undefined),nt,i
Cn1c(CNC(=O)c2ccco2)nnc1SCC(=O)N1c2ccccc2Sc2ccccc21,>57,i
COc1ccc(S(=O)(=O)N(C)CC(=O)N2CCN(C)CC2)cc1C,>57,i
CC(=O)N1CCc2cc(S(=O)(=O)NCCN3CCC(C)CC3)ccc21,>57,i
N#Cc1cc2c(nc1SCC(=O)Nc1sc3c(c1C#N)CCC3)CCCCC2,>57,i
Cc1occc1C(=O)Nc1cc(=O)n(C)c(=O)n1C,>57,i
CCOC(=O)CCSc1nnc(-c2cccnc2)n1-c1ccccc1OC,>57,i
COc1ccc(N(C)C(=O)CC2(CC(=O)O)CCCCC2)cc1,>57,i
CSCCC(NC(=O)C1CCC(C)CC1)C(=O)O (centres undefined),>57,i
O=C1/C(=C/c2cccnc2)SC(=S)N1Cc1ccco1,nt,i
CC(C)(C)N(C=C(Cl)Cl)C(=O)NC1CCCCC1,nt,i
Cn1cccc1-c1nc2ccc(NC(=O)c3ccccc3)cc2[nH]1,nt,i
Cc1ccc(Cl)cc1NC(=O)Cn1cc2c(n1)CCCC2,nt,i

# By substructure: the compounds so far containing a halogen.
SMILES,PK Bst,TsaE inh
O=C(O)CN1CCN(Cc2ccccc2Cl)C1=O,>57,i
CCOC(=O)N1CCN(C(=O)CN(C2CCCCC2)S(=O)(=O)c2ccc(F)cc2)CC1,nt,i
COCCn1c(=O)[nH]c2cc(C(=O)NCCN3CCN(c4ccccc4F)CC3)ccc2c1=O,>57,i
CC(C)(C)N(C=C(Cl)Cl)C(=O)NC1CCCCC1,nt,i
Cc1ccc(Cl)cc1NC(=O)Cn1cc2c(n1)CCCC2,nt,i

# More structures.
SMILES,PK Bst,TsaE inh
Cc1ccc(N=Cc2c(O)n(C)c(=O)n(C)c2=O)nc1,>57,i
Cc1ccc(Cl)cc1-n1c(=O)cc(N2CCN(C(=O)c3ccco3)CC2)[nH]c1=O,>57,i
O=C(c1ccccc1-c1nc2ccccc2[nH]1)N1CCCCC1,>57,i
Cc1cccc(OCc2nc(C)cc(=O)[nH]2)c1,>11,nt
CC(C)CN1CC2(CCN(S(=O)(=O)c3ccccc3)CC2)C1,nt,i
O=C(COc1ccccc1)NCCc1cn2ccsc2n1,nt,i
CN1CCN(C(=O)c2ccc(C3SCC(=O)N3Cc3ccco3)cc2)CC1 (centres undefined),>57,i
Cn1c(=O)c2c(nc(N3CCCCCC3)n2CC(O)COc2ccccc2)n(C)c1=O (centres undefined),>57,i
CCc1ccc(C2CC(c3ccc(C)cc3)Nc3nc(N)nn32)cc1 (centres undefined),nt,i
CCOC(=O)c1c(C)c(C(=O)NCCN2CCOCC2)c(C)n1CC,>57,i
CCOC(=O)N1CCN(Cc2cc(=O)oc3cc4c(cc23)CCC4)CC1,>57,i
COc1ccc(OC)c(-c2cc(C(=O)N3CCN(c4ncccn4)CC3)c3ccccc3n2)c1,>57,i
COc1cc(C2c3c(oc4ccc(Cl)cc4c3=O)C(=O)N2Cc2ccco2)cc(OC)c1OC (centres undefined),>57,i
COc1ccccc1CNC(=O)CNCC1CCCO1 (centres undefined),>57,i
O=C(CSC1=NCCS1)Nc1ccc(S(=O)(=O)N2CCCCCC2)cc1,>57,i
COc1ccc(NC(=O)CN2CCN(S(=O)(=O)c3ccc(Cl)cc3)CC2)cc1,?,i
C=CCc1c(C)nc(SCc2nc3ccccc3c(=O)[nH]2)[nH]c1=O,nt,i
COc1ccc(NC(=O)c2cccc(NC(=O)c3ccco3)c2)c(OC)c1,nt,i
CCC(=O)Nc1ccccc1N1CCN(S(C)(=O)=O)CC1,>57,i
O=C(C1CCN(S(=O)(=O)N2CCOCC2)CC1)N1CCN(Cc2ccccc2)CC1,>57,i
COCCn1c(COC)nc2ccccc21,>57,i
O=C(NCC1CCCO1)c1nn2c(c1Cl)NC(c1ccc(F)cc1)CC2C(F)(F)F (centres undefined),>57,i
CNC(=O)C1=NCCCc2cc(OC)c(OC)cc21,>57,i
CN1C(=S)SC(/[N+]([O-])=C/c2cccnc2)C1(C)C (centres undefined),>57,i
Cc1cc(C)c2ccc(N)nc2c1O,nt,i

# The list continues:
SMILES,PK Bst,TsaE inh
CCn1c(COc2ccc(Cl)cc2)nnc1SCC(=O)Nc1ccc2c(c1)OCO2,>57,i
COC(=O)c1cn[nH]c1N,>57,i
CCOC(=O)c1ccccc1NC(=O)CN(c1cccc(OC)c1)S(C)(=O)=O,nt,i
COc1ccc(OCC(=O)N2CCN(C(=O)c3ccccc3)CC2)cc1,nt,i
COC(=O)c1ccc(NC(=O)c2cccc(OC)c2)cc1,nt,i
OC[C@H](CCc1c[nH]c2ccccc12)c1c[nH]c2ccccc12,nt,i
Cc1cc(C(F)F)n2nc(C(=O)Nc3ccc(S(=O)(=O)N4CCCCCC4)cc3)nc2n1,>57,i
COc1cccc(C2C3=C(CCCC3=O)Nc3nc4ccccc4n32)c1OC (centres undefined),>57,i
CCC(c1nnnn1CCc1ccccc1)N1CCN(c2ccc(OC)cc2)CC1 (centres undefined),>57,i
CCS(=O)(=O)n1nc(-c2ccccc2)nc1NCc1ccco1,>57,i
CCN1CCN(c2cc(C)c3cc(NC(=O)c4ccncc4)ccc3n2)CC1,nt,i
O=C(CSc1nnc(CN2CCOCC2)n1-c1ccc(Cl)cc1)N1CCc2ccccc21,>57,i
Cc1noc(C)c1C(=O)N1CCc2ccccc21,>57,i
O=C(NC(=O)N1CCN(c2ccccc2F)CC1)c1ccccc1,>57,i
COc1ccccc1O,nt,i
Cc1ccccc1-c1cncnc1NCc1cccnc1,nt,i
COc1cc(OC)c(C2SCCN2S(=O)(=O)c2ccc(F)cc2)cc1OC (centres undefined),i,i
O=C(Nc1ccc(Cl)c(C(F)(F)F)c1)N1CCCC(O)C1 (centres undefined),>57,i
O=C(NC1CCCC1)C(c1cccs1)N(CC1CCCO1)C(=O)Cc1cccs1 (centres undefined),>57,i
COC(=O)c1cc2occc2n1CC(=O)Nc1cc(OC)cc(OC)c1,>57,i
Cn1c(Cn2cnc3ccccc32)nc2ccccc21,>26,nt
C=CCn1c(SCCCC)nc(O)cc1=O,nt,i
Cc1nn(-c2ccc(F)cc2)c(C)c1NS(=O)(=O)c1ccc(Cl)cc1,?,i
CCc1ccc(OCC(=O)N(C)C)c(Br)c1,>57,i
O=C(c1ccc2c(c1)OCO2)N(c1ccc(Cl)cc1)C1C=CS(=O)(=O)C1 (centres undefined),>57,i

# Some of these compounds in order of formula weight, rising.
SMILES,PK Bst,TsaE inh
CCc1ccc(OCC(=O)N(C)C)c(Br)c1,>57,i
COc1cccc(C2C3=C(CCCC3=O)Nc3nc4ccccc4n32)c1OC (centres undefined),>57,i
CCOC(=O)c1ccccc1NC(=O)CN(c1cccc(OC)c1)S(C)(=O)=O,nt,i

# More results follow.
SMILES,PK Bst,TsaE inh
C[N+](C)(C)CCCCCNCC12CC3CC(CC(C3)C1)C2,nt,i
Cc1nn(-c2ccccc2)c2c1C1(C(=O)N(C(C)C)c3ccccc31)C(C#N)=C(N)O2 (centres undefined),>57,i
O=C(Cn1cccc1)N1CCN(c2ccc(F)cc2)CC1,nt,i
CN1CCN(S(=O)(=O)c2ccc(NC(=O)c3csc4ccccc34)cc2)CC1,>57,i
NC(=O)c1c(NC(=O)CSc2nnc(-c3ccco3)n2-c2ccccc2)sc2c1CCC2,>57,i
COC(=O)/C=c1/s/c(=C(\C#N)C(=O)NCc2ccco2)n(-c2ccccc2)c1=O,>26,nt
CC(=O)N1CCc2cc(S(=O)(=O)NCCCN3CCN(Cc4ccccc4)CC3)ccc21,>57,i
O=C(CN1C(=O)c2ccccc2S1(=O)=O)NC1CC2CCC1C2 (centres undefined),nt,i
COc1ccc(S(=O)(=O)Nc2ccc3c(c2)COC3=O)cc1OC,>57,i
COc1c2ccoc2nc2c(OC)c(OCC(O)C(C)(C)O)ccc12 (centres undefined),nt,i
CCC(=O)O[C@@]1(C(=O)CCl)[C@@H](C)C[C@@H]2[C@H]3CCC4=CC(=O)C=C[C@@]4(C)[C@]3(F)[C@@H](O)C[C@@]21C,nt,i
Oc1ccc(N2CCN(C(c3cccnc3)c3nnnn3Cc3ccccc3)CC2)cc1 (centres undefined),>57,i
CCOC(=O)C1=C(C)NC(=O)NC1c1ccc(OC)c(CN2CCOCC2)c1 (centres undefined),>57,i
Cc1cc(Nc2ccc(C)c(C)c2)n2nc(C)nc2n1,nt,i
CC(c1ccco1)N(C(=O)Nc1ccc(Cl)cc1)c1ccccn1 (centres undefined),>57,i
O=C(Cn1nnc(-c2ccccc2)n1)NCc1cccs1,>57,i
CCCCc1ccc(-c2ccc(C)cc2O)nc1,9.8*,i
CCOCCCNC(=O)CS(=O)(=O)Cc1nc(-c2cccc(OC)c2)oc1C,>57,i
Cc1ccc(S(=O)(=O)NC(=O)Nc2c(C)n(C)n(-c3ccccc3)c2=O)cc1,>57,i
COc1ccc2c(c1)[nH]c1c(=O)n(CCN3CCCC3)cnc12,nt,i
CCOC(=O)C1=C(C)NC(=O)C(C(N)=O)C1c1ccccc1 (centres undefined),>57,i
CC1(C)NC(=O)N(CCCOc2ccc3c(c2)CCC3)C1=O,>57,i
Cc1ccc(NC(=O)N2CCC(C(N)=O)CC2)cc1,>57,i
CCc1nc(NCc2ccccn2)c2oc3ccccc3c2n1,>57,i
O=C(NCc1ccc2c(c1)OCO2)C1CCCN1C(=O)Nc1cccc(Cl)c1 (centres undefined),>57,i

# Single entries from the entries so far:
# In PK Bst, Cc1ccc(NC(=O)N2CCC(C(N)=O)CC2)cc1 has >57
# In PK Bst, Cc1nn(-c2ccccc2)c2c1C1(C(=O)N(C(C)C)c3ccccc31)C(C#N)=C(N)O2 (centres undefined) has >57
# In PK Bst, CC(c1ccco1)N(C(=O)Nc1ccc(Cl)cc1)c1ccccn1 (centres undefined) has >57
# In PK Bst, COC(=O)/C=c1/s/c(=C(\C#N)C(=O)NCc2ccco2)n(-c2ccccc2)c1=O has >26

# More compounds:
SMILES,PK Bst,TsaE inh
CC1CCN(C(=O)CSc2nc3cccnc3n2C)CC1,>57,i
COc1ccc2nc(Nc3nc(C)c(CCC(C)C)c(=O)[nH]3)nc(C)c2c1,>57,i
O=C(Cn1c(-c2ccccc2)noc1=O)Nc1ccc(S(=O)(=O)N2CCOCC2)cc1,>57,i
CCOC(=O)C1CCCN(c2ncnc3c2cnn3-c2ccc(OC)cc2)C1 (centres undefined),>57,i
N#Cc1nc(COc2ccccc2)oc1NCCN1CCOCC1,>57,i
COCCCN1C(=O)C(=O)/C(=C(/O)c2ccccc2)C1c1ccc(N(C)C)cc1 (centres undefined),>57,i
Cn1c(=O)c2c(nc(Oc3ccc(-c4ccccc4)cc3)n2C)n(C)c1=O,>57,i
O=C(CSCc1ccc(Br)cc1)N1CCOCC1,>57,i
CC(NC(=O)c1ccco1)C(=O)Nc1nc(-c2ccccn2)cs1 (centres undefined),>57,i
O=C1C(=O)N(CCCn2ccnc2)C(c2cccnc2)/C1=C(/O)c1ccccc1 (centres undefined),nt,i
Cn1cnnc1SCC(=O)c1c[nH]c2ccccc12,>57,i
COc1ccc(CN2CCCCC2C)c(C)c1C (centres undefined),nt,i
O=C(COC(=O)c1cccc(NC(=O)c2ccco2)c1)c1ccc(Br)cc1,nt,i
CCOCCCN(C(=O)c1ccco1)C(C(=O)NC1CCCC1)c1cccc(OC)c1OC (centres undefined),>57,i
NCC[C@H]1CCC[C@H](CCN)N1,nt,i
CN[C@@H](CC(C)C)C(=O)N[C@@H]1C(=O)N[C@H](CC(N)=O)C(=O)N[C@H]2C(=O)N[C@H]3C(=O)N[C@H](C(=O)N[C@H](C(=O)O)c4cc(O)cc(O)c4-c4cc3ccc4O)[C@H](O)c3ccc(c(Cl)c3)Oc3cc2cc(c3O[C@@H]2O[C@@H](CO)[C@@H](O)[C@@H](O)[C@H]2O[C@H]2C[C@](C)(N)[C@H](O)[C@H](C)O2)Oc2ccc(cc2Cl)[C@@H]1O,nt,i
COc1ccc(-c2nn3c(-c4ccc(F)cc4)nnc3s2)cc1,nt,i
CCOC(=O)c1cc2c(=O)n3cccc(C)c3nc2n(CC2CCCO2)c1=NC(C)=O (centres undefined),>57,i
CC(C)OC(=O)CSc1nnc(-c2ccc(Cl)cc2Cl)o1,>11,i
CCCCCn1c(SCCc2ccccc2)nc2c1c(=O)[nH]c(=O)n2C,>57,i
CC(=O)c1sc(Nc2nc3ccc(F)cc3s2)nc1C,?,i
CC(C)=C1C2C=CC1C1C(=O)N(c3ccc4c(c3)OCO4)C(=O)C21 (centres undefined),nt,i

# Source: PubChem (National Center for Advancing Translational Sciences (NCATS))

# The list is partial; rates above refer to the full screens.
